High-throughput results as filed in PubChem BioAssay.
2A StopGo: High Throughput Screening for Foot and Mouth Disease Virus Antivirals; human cells with a luciferase reporter of 2A StopGo recoding; control for the full effect not named in the record; Potency, µM (series often up to 57.9 µM), for the others: at the top dose signal change, negative = less light; 410,000 compounds, 1.2% hits; active = well fitted falling curve with a large enough effect; inconclusive = small, poorly fitted or top-dose-only effect; inactive = no such curve, though single readings can be large or run the other way; tested in HEK293T cells; note: % is set by controls: 0 for no effect and ±100 for the full control effect; nearly all actives have a fitted effect of over 45% in size; luciferase light after 4 h
Lassa entry inh: qHTS for Inhibitors of binding or entry into cells for Lassa Virus | Lassa virus pseudotype entry inhibition, cell reporter; control for the full effect not named in the record | Potency, µM (top dose mostly 37.9 µM), without a hit: top-dose activity change, negative = inhibition, actives largely listed as inhibitors | 300,000 compounds, 1.2% hits | AID 540256, 2011; active means well fitted inhibition curve with a large enough effect; inconclusive means small, poorly fitted or top-dose-only effect, or effect the other way; inactive means flat fitted curve, though single readings scatter; tested in HEK293 cells; note: % is set by controls: 0 for no effect and ±100 for the full control effect; nearly all actives have a fitted effect of over 50% in size; luciferase read-out
Cruzain noTriton: qHTS Assay for Promiscuous and Specific Inhibitors of Cruzain (without detergent). Potency, µM, inactives show max response, negative = inhibition, hits mostly inhibitors. Cruzipain (Trypanosoma cruzi), P25779. purified cruzain, Z-FR-AMC fluorescence, no detergent. 200,000 compounds, 2.3% hits;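 note: plate controls were enzyme without inhibitor for no effect and buffer without enzyme for full effect; nearly all actives have a fitted effect of over 40% in size; top concentration of the series not given in the record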
Target sequence (P25779 123-467 limits assumed): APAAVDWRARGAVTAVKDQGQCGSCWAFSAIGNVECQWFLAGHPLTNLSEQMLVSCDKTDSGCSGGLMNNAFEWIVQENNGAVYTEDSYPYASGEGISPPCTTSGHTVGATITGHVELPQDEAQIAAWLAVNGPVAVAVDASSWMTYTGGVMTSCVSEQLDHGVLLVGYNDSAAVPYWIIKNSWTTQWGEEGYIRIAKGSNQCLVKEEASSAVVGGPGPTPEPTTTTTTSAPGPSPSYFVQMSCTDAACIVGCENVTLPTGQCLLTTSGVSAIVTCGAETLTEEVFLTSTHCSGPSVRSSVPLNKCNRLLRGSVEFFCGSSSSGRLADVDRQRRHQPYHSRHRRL
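Purified cruzain at 1.5 nM, pre-incubated 15 min with compound at room temperature in 100 mM sodium acetate pH 5.5, 5 mM DTT, 0.00005% Triton X-100. Reaction started with 2 uM Z-FR-AMC; AMC fluorescence increase over 60 s gives rate.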
NS1 inh: qHTS Assay for Inhibitors of Influenza NS1 Protein Function. 270,000 compounds, 0.4% hits. AID 2326, 2010. Potency, µM (series often up to 46.1 µM), for the others: top-dose activity, positive = more growth. S. cerevisiae slowed by influenza A NS1, growth recovery by OD600; active means well fitted rising curve with a large enough effect; inconclusive means small, poorly fitted or top-dose-only effect; inactive means no such curve, though single readings can be large or run the other way; note: nearly all actives have a fitted effect of over 50% in size
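Compounds were scored for reversing the slow growth caused by influenza A NS1 in S. cerevisiae, measured by optical density at 600 nm. Assay medium contained 2% galactose at pH 6.0; NS1-free yeast of the same strain were the positive control.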
RE007 growth inh: qHTS Assay for Inhibitors of the HIV-1 protein Vpr; S. pombe RE007 Vpr strain, BacTiter-Glo ATP luminescence, 24 h; control for the full effect not named in the record; Potency, µM (doses to about 92.2 µM), without a hit: at the highest dose activity change, negative = less growth; 360,000 compounds, 0.21% hits; AID 651644, 2012; active = well fitted falling curve with a large enough effect; inconclusive = small, poorly fitted or top-dose-only effect; inactive = no such curve, though single readings can be large or run the other way;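 note: % is set by controls: 0 for no effect and ±100 for the full control effect; nearly all actives have a fitted effect of over 50% in size; the assay follows cell death caused by Vpr and the record does not say whether a fall means rescue or toxicity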
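Fission yeast strain RE007, carrying one chromosomally integrated HIV-1 vpr copy, was seeded at OD 0.01 in PMG+AL medium with 23 nL pinned compound. After 24 h at 30 °C and 99% humidity, viability was read by BacTiter-Glo luminescence.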
Cruzain inh Det: qHTS Assay for Promiscuous and Specific Inhibitors of Cruzain (with detergent); Cruzipain (Trypanosoma cruzi), P25779; purified cruzain, Z-FR-AMC fluorescence, 0.01% Triton; 200,000 compounds, 0.43% hits; Potency, µM, for the others: max response, negative = inhibition, most hits filed as inhibitors;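 note: plate controls were neutral wells for no effect and buffer without enzyme for full effect; nearly all actives have a fitted effect of over 40% in size; top concentration of the series not given in the record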
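Purified cruzain (1.5 nM final) was preincubated with compounds for 15 min at room temperature in 100 mM sodium acetate pH 5.5, 5 mM DTT, 0.01% Triton X-100. Reaction started with 2 uM Z-FR-AMC; AMC fluorescence change over 60 s gave activity.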
SARS PLpro yeast: qHTS of Yeast-based Assay for SARS-CoV PLP; S. cerevisiae expressing SARS-CoV PLpro, growth rescue; control for the full effect not named in the record; Potency, µM (doses to about 32.9 µM), inactives show at the highest dose activity, positive = growth rescue; 330,000 compounds, 0.19% hits; AID 485353, 2010; active means well fitted rising curve with a large enough effect; inconclusive means small, poorly fitted or top-dose-only effect; inactive means no such curve, though single readings can be large or run the other way; note: 0% is about no effect; nearly all actives have a fitted effect of over 55% in size; growth read by luminescence after 48 h
Marburg entry inh: qHTS for inhibitors of binding or entry into cells for Marburg Virus; Potency, µM (top dose mostly 37.8 µM), inactives show at the highest dose activity change, negative = inhibition, most hits filed as inhibitors; AID 540276, 2011; Marburg virus pseudotyped entry inhibition, cell reporter; control for the full effect not named in the record; about a third of the inactives were read at about 46 µM; 300,000 compounds, 1.8% hits; active = well fitted inhibition curve with a large enough effect; inconclusive = small, poorly fitted or top-dose-only effect, or effect the other way; inactive = flat fitted curve, though single readings scatter; tested in HEK293 cells; about a fifth of its hits are not listed in these tables; note: % is set by controls: 0 for no effect and ±100 for the full control effect; luciferase read-out
An asterisk follows results filed as active; ? = inconclusive; · = not tested or not shown; & = joins results of further samples; [ ] = remark or other dose. Unless noted, calls come from the whole dose curve; as a rule, active = well fitted curve in the direction sought with a large enough effect; inconclusive = small, poorly fitted or top-dose-only effect, or another doubt; inactive = no such curve, though single readings can be large; an effect the other way counts as inactive or inconclusive. Potency is the fitted concentration of half-maximal effect.

SMILES	2A StopGo	Lassa entry inh	Cruzain noTriton	NS1 inh	RE007 growth inh	Cruzain inh Det	SARS PLpro yeast	Marburg entry inh
Cc1ccc(N)c(C(=O)CCCCC(=O)O)c1	0%	2%	2%	0%	5%	-3.3%	-7%	28%
Cc1ccc(C)c(NC(=O)C(Sc2nncn2C)c2ccccc2)c1 (stereo not drawn)	-24%	-7%	7%	0%	-23%	3.0%	-2%	13%
CC(C)(C)c1oc(C(=O)O)cc1CN1CCOCC1	16%	?	·	4%	-3%	·	1%	-1%
CCOC(=O)c1[nH]c2ccccc2c1NC(=O)c1ccc(Br)o1	·	0%	8%	-31%	3%	-5.9%	-9%	?
O=C(c1ccc(-c2nnc(Nc3ccccc3)c3ccccc23)cc1)N1C[C@H]2C[C@H](C1)c1cccc(=O)n1C2	-27%	-7%	-7%	-21%	-6%	0.3%	3%	?
COc1ccc(OC)c(-n2nnnc2SCC(=O)O)c1	13%	?	4%	-17%	17%	4.3%	11%	18%
O=C(CN1C(=O)/C(=C/c2ccccc2)SC1=S)NC1CCS(=O)(=O)C1 (stereo not drawn)	-3%	·	·	0%	13%	·	?	·
Cc1ccc(OCC(=O)N2CCN(c3nnc(-c4ccccc4)c4ccccc34)CC2)cc1	?	?	-9%	-15%	24%	-5.6%	-3%	?
CCOc1ccc(NS(=O)(=O)c2ccc3[nH]cc(C(=O)N(CC)CC)c(=O)c3c2)cc1	-3%	14%	3%	-48%	-12%	-2.8%	4%	-1%
CN(C)/C=C(\C#N)c1nc2ccccc2[nH]1	·	14%	-5%	-9%	-15%	-1.8%	-1%	23%
CCn1c(SCc2ccccc2)nnc1-c1cccs1	?	7%	-12%	-21%	5%	-0.2%	-4%	11%
O=C1C(=O)N(C2CCN(S(=O)(=O)c3ccc(F)cc3)CC2)CCN1Cc1ccccc1	-16%	0%[46.1 µM]	-3%	·	·	4.4%	·	·
CCOc1ccccc1NC(=O)c1sc2ncn(CC(=O)N3CCOCC3)c(=O)c2c1C	-9%	24%[46.1 µM]	·	-3%	8%	·	9%	-19%[46.1 µM]
COc1ccc(CCNC(=O)C2CCN(S(=O)(=O)c3cccs3)CC2)cc1OC	-17%	-7%[46.1 µM]	·	·	-3%	·	-4%	10%[46.1 µM]
Cc1cccc(Nc2n[nH]c(C)c2[N+](=O)[O-])c1	23%	?	15%	-4%	18%	-5.2%	-22%	13µM*
O=C(c1cc(N2C(=O)C3C4CCC(C4)C3C2=O)ccc1Cl)N1CCN(c2ccccc2F)CC1 (stereo not drawn)	?	3%	?	13%	11%	-2.7%	1%	0%
O=C(Nc1ccccn1)C1CCN(c2ncnc3c2nc2n3CCCCC2)CC1	?	·	·	15%	1%	·	7%	·
Cc1ccc(NC(=O)CSc2nnc(CNC(=O)c3ccco3)n2C)c(C)c1	-10%	?	·	·	8%	·	8%	?
O=C(COC(=O)/C(=C/c1cccs1)c1cccs1)NCc1ccccc1Cl	-29%	?	4%	-7%	-7%	-9.4%	-4%	?
COc1cc(/C=C2\SC(=S)N(CCC(=O)Nc3cccc(O)c3)C2=O)cc(OC)c1OC	20µM*	?	·	5%	-10%	·	1%	?
Cc1cc(C)n2nc(SC(C)C(=O)N3CCCC3)nc2n1 (stereo not drawn)	-19%	-4%	·	·	3%	·	5%	3%
CN(CC(=O)Nc1ccc(F)c(F)c1F)C(=O)C1=NN(c2ccccc2)C(=O)CC1	-7%	10%	·	·	0%	·	12%	-3%
O=C(Nc1nnc(COc2ccc(Cl)cc2)s1)c1ccc([N+](=O)[O-])cc1	-7%	19%	-9%	13%	1%	4.4%	4%	15%[46.1 µM]
O=C(NCCCn1ccnc1)c1ccc(Cl)c(Cl)c1	6%	-4%	·	14%	-6%	·	-6%	-2%
O=C(NCCCN1CCCC1=O)c1ccccc1NS(=O)(=O)c1ccc(F)cc1	·	-3%	0%	0%	-2%	3.3%	9%	2%&5%
Other compounds:
SMILES	2A StopGo	Lassa entry inh	Cruzain noTriton	NS1 inh	RE007 growth inh	Cruzain inh Det	SARS PLpro yeast	Marburg entry inh
CCOc1cc(CNCCc2ccc(S(N)(=O)=O)cc2)ccc1OCC(=O)NC1CCCCC1	-25%	-14%	7%	-2%	5%	-0.8%	-6%	?
O=C(c1ccc2c(c1)N(Cc1ccc(Cl)cc1)C(=O)c1ccccc1S2(=O)=O)N1CCOCC1	14%	-6%[46.1 µM]	?	·	·	0.2%	·	-14%[46.1 µM]
O=C(Nc1cccc([N+](=O)[O-])c1)c1ccc(-c2ccccc2)cc1	35%[activator]	?	?	18%	-6%	-1.4%	10%	?
CCOC(=O)c1c(S(=O)(=O)N2CCC(C(=O)Nc3cccc(C#N)c3)CC2)c(C)n(C)c1C	-11%	-15%[46.1 µM]	19%	·	·	-1.2%	·	·
Cc1ccc(CSc2nnc(-c3ccc(S(=O)(=O)N4CCCC4)cc3)o2)cc1	1%	-18%	-1%	-8%	-3%	-6.7%	-5%	?
O=C(c1cccc(C(F)(F)F)c1)N1CCOc2ccccc21	-27%	·	·	1%	-8%	·	0%	·
O=C(OCn1nnc2ccccc2c1=O)c1cccs1	-20%	11%	-15%	-31%	1%	-4.8%	-6%	-15%
Cc1oc2c(C)c3oc(=O)c(CCC(=O)NCCN4CCOCC4)c(C)c3cc2c1C	-11%	·	·	14%	-3%	·	3%	·
O=C(Cc1c(F)cccc1Cl)OCN1C(=O)c2ccccc2C1=O	2%	-5%[46.1 µM]	·	2.2µM*	8%	·	9%	38%[46.1 µM]
CN(C)S(=O)(=O)c1ccc(Cl)c(C(=O)NC2=NCCS2)c1	10%	?	·	10%	9%	·	-1%	-12%[46.1 µM]
CCOC(=O)c1c(NC(=O)CCN2CCOCC2)sc(C)c1-c1ccccc1	?	3.2µM*	·	-8%	-14%	·	0%	?
CCC(C)NC(=O)C1CCN(S(=O)(=O)c2ccc3c(c2)CC(C)N3C(C)=O)CC1 (stereo not drawn)	-7%	·	·	-3%	-3%	·	-4%	·
O=C(NS(=O)(=O)c1ccccc1)c1cccc(Br)c1	17%	·	·	-2%	2%	·	29%	·
CCOc1ccc(NC(=O)N2CCC(N3CCCCC3)CC2)cc1	-9%	20%[46.1 µM]	8%	·	·	-1.2%	·	?
C/C(=N\Nc1ccccc1)c1cccs1	3%	1%	·	·	10%	·	·	7%[46.1 µM]
O=C(C=C1CCN(c2ncc(C(F)(F)F)cc2Cl)CC1)NNC(=O)Nc1ccc(Cl)cc1	15%	8%	-8%	6%	19%	10%	-3%	14%
COc1ccc2oc(C(=O)OCC(=O)Nc3ccc(OC)c(S(N)(=O)=O)c3)c(C)c2c1	27%	12%[46.1 µM]	·	·	-21%	·	1%	30%
COCCn1c(=O)[nH]c2cc(C(=O)NCCc3ccc(S(N)(=O)=O)cc3)ccc2c1=O	-6%	8%[46.1 µM]	·	·	-5%	·	4%	6%[46.1 µM]
CSc1nc(=S)c2[nH]c(=S)[nH]c2[nH]1	-9%	?	·	?	11%	·	3%	?
Cc1cnc(NC(=O)c2ccc3c(c2)C(=O)N(Cc2cccnc2)C3=O)s1	1%	-2%	·	5%	0%	·	-1%	2%
CC(Sc1nc2ccccc2s1)C(=O)Nc1ccc2c(c1)OCO2 (stereo not drawn)	20%	-21%	-27%	8%	-9%	-4.4%	0%	?
COc1ccc(S(=O)(=O)N2CCCCC2)cc1Br	-6%	0%	-2%	-31%	-18%	10%	-1%	-3%
O=C(CN1CCN(CC(=O)Nc2cccc(F)c2)CC1)Nc1ccc(-c2ccccc2)cc1	15%	-26%[46.1 µM]	·	-13%	13%	·	-1%	?
CCN1CCN(C(=O)c2c(C)nn(-c3ccc(F)cc3)c2-n2cccc2)CC1	?	2%[46.1 µM]	-15%	·	·	-1.9%	·	·
CCCNC(=O)c1nc(C)n(-c2ccc([N+](=O)[O-])cc2)n1	4%	-13%	·	·	18%	·	5%	6%[46.1 µM]
The listing continues:
SMILES	2A StopGo	Lassa entry inh	Cruzain noTriton	NS1 inh	RE007 growth inh	Cruzain inh Det	SARS PLpro yeast	Marburg entry inh
CCOc1ccccc1NC(=O)Nc1ccccn1	5%	-12%[46.1 µM]	·	-38%	17%	·	-1%	?
Cc1ccc(OCc2cc(C(=O)N(C)CCc3ccccn3)no2)cn1	-20%	·	·	-6%	-8%	·	-2%	·
O=C(CN(Cc1ccccc1F)S(=O)(=O)c1ccc(Cl)cc1)NCCC1=CCCCC1	?	?	-7%	3%	8%	-7.4%	-1%	?
O=C(NCCCN1CCOCC1)c1ccc(-c2ccc(Cl)cc2)o1	24%	·	·	0%	-10%	·	0%	·
O=C(NCc1ccco1)C(Cc1ccccc1)N1C(=O)c2ccccc2C1=O (stereo not drawn)	-1%	4%	0%	3%	10%	-0.8%	3%	?
CCCCCc1nnc(NC(=O)CS(=O)(=O)Cc2ccccc2)s1	-21%	-4%	-8%	-16%	1%	-3.7%	-8%	0%
c1ccc(-c2nnc3sc(CN4CCC5(CC4)OCCO5)cn23)cc1	-15%	-13%[14.3 µM]	-1%	-6%	9%	2.1%	0%	18%
Cc1ccc(Cn2nc(-c3ccccc3)nc2-c2ccccc2)cc1	33%[activator]	?	9%	-1%	19%	2.7%	-3%	?
COc1ccc(-c2cc(OC(=O)c3ccc(Cl)cc3)c3c(C)oc(C)c3c(=O)c2)cc1	?	?	-2%	·	·	-9.3%	·	-15%[46.1 µM]
Nc1nonc1NN=C1CCCCC1	-5%	·	·	3%	6%	·	-1%	-2%
CCn1c(OC)nc2c1c(=O)n(C)c(=O)n2C	5%	23%	·	-1%	13%	·	0%	0%[46.1 µM]
CCN(CC)C(=O)c1ccc(COc2ccccc2Cl)cc1	11%	?	26%	-49%	5%	-7.3%	-18%	?
O=C(NC(=S)N1CCCC1)c1ccccc1	-7%	20%	·	6%	-9%	·	1%	0%
